YopH inh = YopH (Yersinia) phosphatase inhibition | inhibition, %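 (about 10 µM by stock and volumes)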 | fluorescence Ex485/Em525 | 0.16% of 140,000 active | AID 898;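 active = inhibition of 50% or more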;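 also: controls were vehicle for no effect and minimum signal wells for full effect; inactives centre near -20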
Arbovirus anti = antivirals against arbovirus infection | arbovirus infection cell-based antiviral screen | inhibition, % at 10 µM | 0.37% of 200,000 active;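 active = inhibition from about 30%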;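 also: bluetongue infection of BSR cells; cell survival read as ATP light after 72 h; 0% = infected wells without compound and 100% = uninfected wells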
RecA splice inh = Mtb RecA intein splicing inhibition; cell-free RecA intein splicing, fluorescence; AID 2221; 0.75% of 290,000 active; inhibition, %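 (about 9 µM by stock and volumes)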; in the data active = inhibition above about 30%; inconclusive = no clear call, values can overlap the other calls;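 also: 0% = vehicle wells and 100% = reference inhibitor control wells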
Target sequence (P9WHJ3 whole entry, looked up, canonical isoform): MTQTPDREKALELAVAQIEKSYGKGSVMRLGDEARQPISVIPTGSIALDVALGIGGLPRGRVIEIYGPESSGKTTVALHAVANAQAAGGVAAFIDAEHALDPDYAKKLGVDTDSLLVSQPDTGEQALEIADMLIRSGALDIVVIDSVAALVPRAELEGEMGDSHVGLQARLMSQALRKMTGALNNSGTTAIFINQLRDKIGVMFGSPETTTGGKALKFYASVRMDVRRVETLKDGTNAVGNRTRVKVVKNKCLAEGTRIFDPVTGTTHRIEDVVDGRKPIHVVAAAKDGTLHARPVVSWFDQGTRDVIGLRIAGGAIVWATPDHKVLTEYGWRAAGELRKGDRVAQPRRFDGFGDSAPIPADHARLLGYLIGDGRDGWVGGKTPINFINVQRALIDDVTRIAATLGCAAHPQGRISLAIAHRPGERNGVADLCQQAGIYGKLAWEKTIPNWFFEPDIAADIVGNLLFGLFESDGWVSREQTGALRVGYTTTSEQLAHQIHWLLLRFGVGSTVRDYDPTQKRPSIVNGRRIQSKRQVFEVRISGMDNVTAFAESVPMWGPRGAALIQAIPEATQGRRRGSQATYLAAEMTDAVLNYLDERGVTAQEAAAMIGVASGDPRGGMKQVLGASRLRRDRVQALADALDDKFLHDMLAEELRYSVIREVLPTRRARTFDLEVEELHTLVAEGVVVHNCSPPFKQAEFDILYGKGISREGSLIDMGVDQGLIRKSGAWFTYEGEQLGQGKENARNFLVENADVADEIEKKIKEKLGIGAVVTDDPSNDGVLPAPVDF
Mtb growth = M. tuberculosis H37Rv growth inhibitors, H37Rv strain (AID 1626) | 0.95% of 220,000 active | inhibition, % at 10 µM; hits with a dose series show IC50 in µM | M. tuberculosis H37Rv growth inhibition; higher % means a stronger effect;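 active = confirmed in a dose series; inconclusive = inhibition above 80% but not taken into the dose series; inactive = below 80% or under 30% at every dose of the series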;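 also: bacteria incubated seven days before Alamar blue readout; 0% = bacteria only wells and 100% = bacteria with antibiotic wells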
Mtb bLac sens = beta-lactam sensitization of Mtb H37Rv. M. tuberculosis H37Rv growth with meropenem, percent inhibition; hits of this screen are not shown here. inhibition, % at 25 µM. 0.27% of 330,000 active;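 active = about 74% or more and at least 40 points above the plate without the antibiotic, then above 30% in a dose series; inconclusive = first-round hits that could not be retested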;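 also: growth measured after seven days incubation then overnight dye step; 0% = bacteria only wells and 100% = bacteria with antibiotic; twin plates without the antibiotic show which effects depend on it; some results filed as inactive read as strong as hits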
Arbovirus anti repeat = also measured in Arbovirus anti; calls as there; inhibition, %; measured here: 10K subset replicate screen; many hits read low in the repeat;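 first of two repeat runs on a subset; 0% = infected and 100% = uninfected wells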
The depositor's hits bear a star; ? = inconclusive; nt = no result given.

SMILES	YopH inh	Arbovirus anti	RecA splice inh	Mtb growth	Mtb bLac sens	others
Cn1cc(C(=O)N/N=C/c2ccc3c(c2)OCO3)c2ccccc21	nt	nt	1.0	-3.3%	-6.5
Oc1[nH]c2ccccc2c1N=NC(=S)N1CCOCC1	nt	nt	66.8*	?	96.2
CCn1c(SCC(=O)OC)nc2sc3c(c2c1=O)CC(C)(C)OC3	nt	nt	0.8	3.2%	52.4
Cc1cccc(C)c1NC(=O)CN(C)C(C)C(=O)Nc1ccccc1-c1ccccc1 (configuration not stated)	nt	7.5	-0.6	11.2%	8.2
Cc1cccc(NC(=O)c2cc(S(=O)(=O)N3CCC4(CC3)OCCO4)ccc2F)c1	nt	nt	0.3	nt	6.4
CCn1cc([N+](=O)[O-])c(C(=O)Nc2nc(-c3ccc(C)c(C)c3)c(C)s2)n1	-29.9	-3.9	-2.4	nt	2.8
Cc1ccc2oc(=O)c3cnn(CC(=O)Nc4ccccc4N4CCN(C)CC4)c3c2c1	-6.3	-26.6	-8.1	4.4%	-3.2	Arbovirus anti repeat=-18.7
COCCCn1c2nc3ccccc3nc2c2c(=O)n(-c3ccccc3OC)c(C)nc21	-23.2	-8.1	2.1	nt	-2.0
COc1ccc(N2C(=O)[C@@H]3C(c4cccnc4)=NO[C@@H]3C2=O)cc1	nt	nt	12.0	4.5%	0.6
Cc1nc2c(c(-c3ccccc3)c1C#N)C(=O)c1ccccc1-2	2.9	-12.1	-2.1	2.9%	-2.0
COc1cc(C(=O)NCCc2ncccc2C)ccc1OC1CCN(C(C)=O)CC1	nt	nt	-0.8	nt	2.1
CC1Cc2cc(/C(O)=C3/C(=O)C(=O)N(CCCN4CCOCC4)C3c3ccc(C(C)C)cc3)ccc2O1 (configuration not stated)	nt	nt	5.3	nt	4.3
CCOC(=O)C1(Cc2cccc(OC)c2)CCN(Cc2cccc3c2OCO3)CC1	nt	16.9	-3.1	3.8%	-6.2
COc1ccc(-n2c(SCC(=O)Nc3nccs3)nc3c(c2=O)SCC3)cc1	2.4	-4.8	-0.6	12.4%	1.6	Arbovirus anti repeat=-1.4
COc1ccccc1N1CCN(C(=S)Nc2cccc(C)c2)CC1	nt	-16.1	2.5	-1.1%	1.6
O=C(c1cccc(Cl)c1)N1CCC(=O)N(C(CO)Cc2ccccc2)CC1 (configuration not stated)	nt	nt	-0.2	-5.0%	-0.7
Clc1ccc(-c2nnc3n2CCCC3)cc1Cl	-26.1	5.3	1.2	6.3%	-4.4
COc1ccccc1/C=C1\SC(=S)N(CCC(=O)Nc2ccc(C(=O)O)c(O)c2)C1=O	nt	nt	29.5	nt	32.0
Cc1occc1C(=O)NC1CCCCCCC1	-14.1	4.4	-0.2	0.1%	-4.3
COc1ccc(N2C(=O)CCC(C(=O)N(C)C3CCCCC3)C2c2ccc(OC)c(OC)c2)cc1 (configuration not stated)	-32.7	8.5	nt	1.8%	-9.0
CCOC(=O)C(=O)NNc1ccc(F)cc1	nt	nt	-3.5	?	96.0
COc1cc(CNc2ccc(S(N)(=O)=O)cc2)ccc1OCC(=O)NC1CCCCC1	nt	-0.8	1.8	-6.1%	-1.6
CC1CCCCC1NC(=O)CN(C)S(=O)(=O)c1cccc2cccnc12 (configuration not stated)	nt	nt	1.7	-1.5%	-0.9
COc1ccc(OC)c(NC(=O)Nc2ccc(O)c3ccccc23)c1	nt	nt	77.8*	nt	3.9
COc1ccc(-c2ccnc(-c3ccncc3)n2)cc1	nt	nt	13.3	6.3%	69.6
CC(C)Cc1ccc(S(=O)(=O)Nc2ccc3[nH]c(=O)[nH]c3c2)cc1	nt	nt	0.5	nt	6.6
Nc1ccc(S(=O)C(F)(F)F)cc1 (configuration not stated)	nt	19.6	1.3	3.2%	-9.9
COC(=O)c1ccc(CNC(=O)COC(=O)c2cc(Cl)nc(Cl)c2)cc1	nt	15.7	-0.5	3.8%	6.6
O=S(=O)(c1cccc(C(F)(F)F)c1)N1CCC(c2cc(-c3cccc4ccccc34)n[nH]2)CC1	-11.7	-20.0	2.5	2.7%	-5.6
CCOc1ccc(S(=O)(=O)N2CCN(c3ncccn3)CC2)cc1	nt	nt	-2.2	nt	-6.3
Cc1ccccc1NC(=O)NCCCN1CCCC1=O	nt	nt	-1.4	nt	-6.2
CCCn1nnc(NC(=O)c2cccnc2Cl)n1	-28.5	5.1	-0.7	7.0%	-5.9
O=C(Nc1nnc(S(=O)(=O)N2CCN(c3ccc(F)cc3)CC2)s1)c1ccccc1	nt	nt	1.5	nt	0.3
C/C(=N/NC(=O)c1cc(-c2ccc(Cl)s2)[nH]n1)c1ccco1	nt	nt	7.6	40.6%	75.2
CCNc1nc(NC(N)=S)nc(NC(C)(C)C)n1	nt	1.9	2.3	-2.3%	1.7
CC(C)CNC(=S)NNC(=O)c1ccc(OC(F)F)cc1	-6.7	0.6	0.7	-4.6%	2.3
O=C(NCCCN1CCOCC1)c1cccs1	-18.1	-1.0	nt	-10.2%	-0.6
Cc1cc(NS(=O)(=O)c2ccc(NC(=O)N[C@H](C(=O)O)C(C)C)cc2)no1	nt	nt	-2.2	nt	-5.1
O=c1ccccn1CCOc1ccccc1Cl	-20.2	0.2	1.4	-1.2%	0.9
CCc1ccc(NCc2nc(-c3ccccc3)no2)cc1	-31.9	8.1	3.6	29.8%	77.8
CCc1ncc(C)[nH]1	nt	nt	-2.7	nt	3.2
COc1ccc2c(c1)C(=O)N(c1ccccc1OC)C(=O)C2	7.3	2.8	-0.4	-4.6%	14.4
C=CCCN(C1CCCC1)S(=O)(=O)c1ccccc1Br	nt	nt	8.0	-3.0%	2.7
CC(C)N(CCc1ccncc1)C(=S)Nc1cccc(Cl)c1	nt	21.8	-6.8	6.5%	-1.4
COC(=O)COc1ccc(S(=O)(=O)Nc2ccc(NC(C)=O)cc2)cc1	-9.2	-3.1	0.4	-8.0%	-8.2
Clc1ccccc1Cn1nnc2c(N3CCOCC3)nc(C3CC3)nc21	-2.4	3.4	-1.8	nt	-2.2
Cc1cc(C)n(C(=O)COc2ccccc2C)n1	-35.0	10.2	2.1	-6.6%	3.4
COc1ccc(C=O)cc1Cn1c(=O)n(CCC(=O)NCc2ccco2)c(=O)c2sccc21	nt	-4.8	0.0	-3.9%	-3.3
CN1C(=O)[C@H]2[C@@H](/C=C/c3ccccc3)N3C(=O)CN(CC4CC4)C(=O)[C@@]3(C)[C@H]2C1=O	nt	nt	1.0	nt	-8.9
NC(=O)C1CCN(C(=O)C2(NC(=O)Nc3cccc(F)c3)CCCCC2)CC1	nt	nt	-1.6	nt	-8.3
COc1ccc(N2CCN(c3ccc([N+](=O)[O-])nc3)CC2)cc1	nt	-5.4	-3.8	-0.7%	8.0
Cc1cc(-c2nnc(SCC(=O)Nc3nc(-c4ccc(Cl)cc4)cs3)o2)no1	nt	nt	0.7	-4.8%	3.2
O=C(Nc1cccc([N+](=O)[O-])c1)c1ccccc1	nt	nt	1.1	10.2%	-0.9
CCCNC(=O)CN(C)S(=O)(=O)c1ccc(F)cc1	-20.7	-0.1	-0.8	2.6%	-6.8
CC(=O)N1c2ccc([N+](=O)[O-])cc2NC(=O)CC1C (configuration not stated)	-15.9	-1.0	-1.7	-0.2%	6.0
CC(=O)Nc1ccc(S(=O)(=O)Nc2c(C)n(C)n(-c3ccccc3)c2=O)cc1	-46.1	-1.9	-0.2	4.1%	-4.5
COc1ccc(C2/C(=C(/O)c3ccccc3)C(=O)C(=O)N2C)cc1 (configuration not stated)	7.8	17.7	-0.2	-0.3%	-6.4
COc1cccc(C(=O)Cn2c(N3CCCCC3)nc3c2c(=O)n(C)c(=O)n3C)c1	-43.1	-15.8	-1.6	-5.8%	-6.0
O=C(N=C1SC2CS(=O)(=O)CC2N1Cc1ccc(F)cc1)C1CC1 (configuration not stated)	nt	nt	-2.5	nt	-0.3
COc1ccc(C2NC(C(=O)O)Cc3c2[nH]c2ccccc32)cc1OC (configuration not stated)	-23.3	-5.7	-1.5	-10.8%	-9.7

(further entries)
SMILES	YopH inh	Arbovirus anti	RecA splice inh	Mtb growth	Mtb bLac sens	others
CC(=O)C1C(=O)CC(C)(O)C(C(C)=O)C1c1ccccc1 (configuration not stated)	nt	2.1	-0.8	-8.0%	2.7
O=C(CCSc1ccc(Cl)c(Cl)c1)NC12CC3CC(CC(C3)C1)C2	-37.5	-27.4	3.2	-3.7%	nt
CS(=O)(=O)N(CC(=O)Nc1ccccc1C(=O)NCCc1ccccc1)c1ccc2c(c1)OCCO2	-0.6	-6.8	4.6	-8.5%	0.2
C=CCNC(=O)CC(=O)N/N=C/c1cccc(C)c1	3.6	8.0	-0.9	-0.4%	0.4
Cc1cc(C)cc(NC(=O)c2ccc(CSc3nnnn3C)cc2)c1	-36.2	-6.0	-1.4	32.5%	37.3
COc1ccc(C2C(C(=O)OC3CCCCC3)=C(C)Nc3nnnn32)c(OC)c1OC (configuration not stated)	-28.7	-0.8	-3.4	0.6%	1.4
Cc1nnc(SCC(=O)N(C)Cc2ccccc2)[nH]c1=O	-5.9	-2.3	0.7	-2.4%	-2.1
CCOC(=O)c1nnn(CC(=O)N2N=C(c3ccccc3)CC2c2ccccc2)c1C(=O)OCC (configuration not stated)	-6.2	-4.3	-0.6	-8.5%	-2.0
O=S(=O)(Nc1c(O)ccc2ccccc12)c1cccc2ccccc12	nt	nt	84.3*	nt	-8.9
Cc1ccc(NC(=O)Cn2cc(C=O)c3ccccc32)cc1	nt	nt	0.0	nt	10.1
O=C1CSCN1c1ccc(Cl)c(Cl)c1	nt	3.2	-1.7	-2.1%	-0.1
COc1ccc2c(CCNC(N)=S)c[nH]c2c1	nt	nt	-2.8	7.2%	-7.7
O=C(O)CCc1ccc(S(=O)(=O)NCCc2ccccc2)cc1	20.4	3.0	1.3	3.8%	-2.7
C=CCn1c(O)c(C(CC)=NCC2CCCO2)c(=O)[nH]c1=O (configuration not stated)	nt	nt	-0.8	-4.5%	-6.8
COc1cc(OC)cc(C(=O)NCC2CCCO2)c1 (configuration not stated)	-23.5	6.5	2.4	-2.7%	-2.4	Arbovirus anti repeat=1.4
CCCN(c1ccc(C(=O)OC)cc1)S(=O)(=O)c1ccccc1	nt	2.5	-0.8	6.2%	5.1
COc1cccc2c(Cl)c(CC=C(Cl)Cl)c(C)nc12	nt	-6.5	2.1	3.4%	3.5
C=CCn1nc2n(c1=O)-c1ccccc1SC2	nt	nt	0.3	-0.8%	-2.4
CN(C)c1nc2c(c(N)nn2-c2ccc(Cl)cc2)c(=O)o1	-19.4	-2.9	4.9	0.0%	-4.9
COc1cccc(OCCn2cccc2/C=C2/C(=N)N3OC(C)=CC3=NC2=O)c1	nt	-0.5	-2.5	0.4%	-4.3
Cc1cc(OCCn2ccnc2)ccc1C(C)C	-27.3	-2.6	0.9	10.5%	-4.5
Fc1ccccc1C1CCN(Cc2nc(COc3ccccc3)no2)C1 (configuration not stated)	nt	-7.2	7.8	4.3%	-0.5
CCOC(=O)C(=NC1CCCCC1)NNc1cccc(C(F)(F)F)c1	-11.1	4.7	2.2	?	97.8
NC(=O)c1ccccc1N/C=C/C(=O)c1ccc(F)cc1	-23.1	-11.1	-6.4	nt	nt
COc1cccc(-n2nnnc2SCC(=O)Nc2nc3c(s2)CCCC3)c1	-11.2	2.5	4.4	14.1%	33.6
N#Cc1cc2c(nc1SCC(=O)O)CCCC2	-13.4	-28.5	-0.7	-7.5%	-5.0
O=C(Cn1nnc(-c2ccccc2)n1)Nc1cccc(S(=O)(=O)N2CCCC2)c1	nt	nt	-0.9	nt	-15.7
COc1ccc(-c2cnc(N)n2C)cc1	nt	7.8	3.5	2.5%	-6.8
Cc1nn2c(c1-c1ccccc1)N=C(c1ccco1)CC2c1ccccc1 (configuration not stated)	4.8	2.1	9.8	3.3%	0.8
O=C(Nc1cccn2ncnc12)c1cccc(C(F)(F)F)c1	nt	13.9	0.0	1.8%	-4.5
CCOC(=O)c1cnc(SCC(=O)Nc2ccc(N3CCOCC3)c(Cl)c2)nc1N	3.5	3.2	0.6	4.7%	23.9
Cn1cc([N+](=O)[O-])c(C(=O)NNC(=O)c2ccc([N+](=O)[O-])cc2)n1	nt	9.9	-1.9	3.9%	-6.9

Ordered by heavy-atom count (lowest first): some entries from above
SMILES	YopH inh	Arbovirus anti	RecA splice inh	Mtb growth	Mtb bLac sens	others
COc1ccc(-c2cnc(N)n2C)cc1	nt	7.8	3.5	2.5%	-6.8
NC(=O)c1ccccc1N/C=C/C(=O)c1ccc(F)cc1	-23.1	-11.1	-6.4	nt	nt
Fc1ccccc1C1CCN(Cc2nc(COc3ccccc3)no2)C1 (configuration not stated)	nt	-7.2	7.8	4.3%	-0.5
COc1cccc(-n2nnnc2SCC(=O)Nc2nc3c(s2)CCCC3)c1	-11.2	2.5	4.4	14.1%	33.6
CCOC(=O)c1cnc(SCC(=O)Nc2ccc(N3CCOCC3)c(Cl)c2)nc1N	3.5	3.2	0.6	4.7%	23.9

Screening results: PubChem BioAssay, several laboratories

Some of the compounds tested, so the mix of outcomes need not match the whole.
